KCNQ2 block: KCNQ2 potassium channel inhibitors, primary screen, cell-based, CHO-K1, FluxOR thallium flux, B-score (AID 2156); B-score at 10 µM; 310,000 tested, 1.1% active; 20 min; stronger effect = lower value; only compounds with negative scores are shown here; some inactives read as strong as hits;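 active = fluorescence ratio B-score at most minus 3 library SDs, with starting brightness B-score within 2 library SDs, cut at about -5.5 in these data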
Target sequence (O88943 whole entry, looked up): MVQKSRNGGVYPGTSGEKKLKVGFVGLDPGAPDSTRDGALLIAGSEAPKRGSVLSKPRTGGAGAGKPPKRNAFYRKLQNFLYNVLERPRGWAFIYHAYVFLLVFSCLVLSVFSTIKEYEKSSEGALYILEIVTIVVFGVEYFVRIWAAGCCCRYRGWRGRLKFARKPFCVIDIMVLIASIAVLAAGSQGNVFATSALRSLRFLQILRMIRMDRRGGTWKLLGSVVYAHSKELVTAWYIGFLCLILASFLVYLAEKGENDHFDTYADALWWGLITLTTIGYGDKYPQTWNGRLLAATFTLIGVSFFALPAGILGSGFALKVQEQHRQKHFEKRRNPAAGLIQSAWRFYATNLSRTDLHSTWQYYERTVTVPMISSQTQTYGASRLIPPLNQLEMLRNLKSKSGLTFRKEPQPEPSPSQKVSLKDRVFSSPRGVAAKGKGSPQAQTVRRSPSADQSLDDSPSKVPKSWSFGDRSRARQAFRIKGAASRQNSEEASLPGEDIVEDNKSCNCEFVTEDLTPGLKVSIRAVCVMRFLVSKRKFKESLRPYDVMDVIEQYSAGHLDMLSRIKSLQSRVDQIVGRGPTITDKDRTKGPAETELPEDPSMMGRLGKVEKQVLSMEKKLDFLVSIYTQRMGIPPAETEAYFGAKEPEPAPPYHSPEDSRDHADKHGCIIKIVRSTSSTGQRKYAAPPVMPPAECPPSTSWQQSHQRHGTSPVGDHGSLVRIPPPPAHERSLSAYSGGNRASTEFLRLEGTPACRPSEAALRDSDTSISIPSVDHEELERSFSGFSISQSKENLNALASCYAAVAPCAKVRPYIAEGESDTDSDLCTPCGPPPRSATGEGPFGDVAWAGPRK
KCNQ2 block baseline: further read-out of KCNQ2 block, marked with its call; B-score; measured here: initial fluorescence intensity artifact check;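 brightness before thallium and not channel activity; 0 = typical well and far values either way flag optical interference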
The depositor's hits bear a star; i = inactive.

Molecule | KCNQ2 block | KCNQ2 block baseline
CC(/C=C/c1cccc([N+](=O)[O-])c1)=N\NC(=O)c1ccncc1 | i | -1.5
O=C(CCN1C(=O)c2ccccc2C1=O)N(CCO)Cc1ccccc1 | i | 0.63
CN(CC(=O)Nc1ccccc1C(F)(F)F)C(=O)CC1OC(=O)c2ccccc21 (stereo unspecified) | i | -0.85
O=C(CCN1C(=O)COc2ccccc21)NCCCN1CCN(c2ccc(F)cc2)CC1 | i | -1.4
O=C(CCN1C(=O)c2ccccc2S1(=O)=O)Nc1ccc(C(=O)O)cc1 | i | 1.8
CC1CC(C)CN(C(=O)C2CCN(S(=O)(=O)c3c(Cl)cccc3Cl)CC2)C1 (stereo unspecified) | i | 0.76
CCOC(=O)CSc1nnc(NC(=O)CN2CCCCC2)s1 | i | -0.23
Nc1c(C(=O)Nc2ccc3c(c2)OCCO3)nnn1Cc1cccc(Cl)c1 | i | -0.72
CCOc1ccc(C(CC(=O)O)NC(=O)Cc2ccc(Cl)cc2)cc1 (stereo unspecified) | i | 0.5
CC12CC3CC(C)(C1)CC(CN)(C3)C2 | i | 2.2
CCOc1ccc(-c2cc(C(=O)NN3CCN(C)CC3)c3cc(Cl)ccc3n2)cc1 | i | 1.4
O=C1CSC(c2ccc(Cl)cc2)N1C1CCCCC1 (stereo unspecified) | i | 0.2
COc1ccc(CNS(=O)(=O)c2ccc3c(c2)CCN3C(=O)C2CCC2)cc1 | i | 0.01
CC(C)c1ccccc1NC(=O)COC(=O)/C=C/c1cccc([N+](=O)[O-])c1 | i | -1.5
O=S(=O)(Nc1ccc(-c2ccc3nncn3n2)cc1)c1cc(F)ccc1F | i | 1
O=C(N/N=C/C=C/c1ccccc1[N+](=O)[O-])c1cc(-c2cccnc2)nc2ccccc12 | i | -0.1
COc1ccc(-c2[nH]ncc2CN(C)CC2CCCCO2)cc1F (stereo unspecified) | i | -0.79
COc1ccc(CCC(=O)NNC(=O)c2ccc(OC)cc2)cc1 | i | 2.3
COc1cc(NC(=O)c2cc3nc(C4CC4)cc(C(F)(F)F)n3n2)c(OC)cc1Cl | i | -0.22
COCCNc1cc(-c2ccccc2)nc2cc(-c3cccc(F)c3)nn12 | i | -1.3
NC(=O)COc1c(-c2ccccc2)oc2ccccc2c1=O | i | 2.1
COc1ccccc1NC(=O)c1cnc(Nc2ccccc2OC)c2ccccc12 | i | -0.44
Cc1cc(NC(=O)CCC(=O)N(c2ccc(F)cc2)C2(C(=O)NC3CCCCC3)CCCC2)no1 | i | -1.2
CC1=C(C#N)C(c2ccc(O)cc2)C2=C(CCCC2=O)N1 (stereo unspecified) | i | 0.1
COc1ccc(NC(=O)C(C)N2c3cccc4cccc(c34)S2(=O)=O)cc1OC (stereo unspecified) | i | 0.45
COC(=O)C1=C(N)Oc2cc(C)n(CCN3CCOCC3)c(=O)c2C1c1cccnc1 (stereo unspecified) | i | -1.1
CCCCC(=O)NC(c1cccs1)c1cc(Cl)c2cccnc2c1O (stereo unspecified) | i | -0.52
COc1ccc(-n2c(CNC(=O)COc3ccc(Cl)cc3Cl)n[nH]c2=S)cc1 | i | -3.3
COC(=O)c1cccc(-c2ccc(/C=N/N3C(=O)C4C5C=CC(C6CC56)C4C3=O)o2)c1 (stereo unspecified) | i | -0.53
CN(C)C(CNC(=O)c1ccc(S(=O)(=O)Nc2ccccc2F)cc1)c1ccccc1 (stereo unspecified) | i | 0.87
COc1ccc(OCC(=O)O/N=C(\N)c2ccc(OC)c(OC)c2)cc1 | i | 1.8
CN(C)c1cccc(C(=O)NC2CCCCCC2)c1 | i | 0.99
Cc1cccc(C(=O)NNC(=O)c2c(O)c3ccccc3n(C)c2=O)c1 | i | 1.7
CCOC(=O)c1cc(-c2ccc(F)cc2)n(CC(=O)NCc2ccccn2)c1C | i | -1.3
O=C(CSc1n[nH]c(=O)n1C1CC1)c1ccc2c(c1)OCCO2 | i | -0.27
Cc1cc(=O)n2[nH]c(-c3cccc(Cl)c3)cc2n1 | i | -0.97
O=C(NCC(c1ccco1)N1CCc2ccccc21)C(=O)Nc1ccccc1 (stereo unspecified) | i | -1.1
CCCN1CCC(=O)N([C@H](CSc2ccc(C)cc2)CC(C)C)CC1 | i | 0.7
CN1CCN(C(=S)Nc2ccc([N+](=O)[O-])cc2)CC1 | i | 0.01
COc1ccc(Cn2nc(C(=O)O)c3ccccc3c2=O)cc1F | i | -0.03
O=C(c1cc2c(s1)-c1ccccc1OC2)N1CCN(c2ccccc2)CC1 | i | -2.9
COc1cccc(/C=C2\CC(C)Cc3c2nc2ccccc2c3C(=O)O)c1OC (stereo unspecified) | i | 0.92
OCc1nc2ccccc2n1/N=C/c1cccs1 | i | 2.8
O=C(CSc1nc2[nH]ncc2c(=O)n1-c1ccccc1Br)NCc1ccccc1Cl | i | -0.36
O=C(O)CC(NC(=O)C(c1ccccc1)c1ccccc1)c1cccc([N+](=O)[O-])c1 (stereo unspecified) | i | -1.6
O=C(COC(=O)C1(c2ccccc2F)CCCC1)Nc1ncc(C(F)(F)F)cc1Cl | i | -0.9
Cc1ccc(C)c(N2CCN(C(=O)c3ccc4nsnc4c3)CC2)c1 | i | 1.3
CN(C)Cc1c(C(=O)N/N=C/c2ccc(OCc3c(F)cccc3Cl)cc2)nnn1-c1nonc1N | i | -1.1
Cc1cc(C)c(S(=O)(=O)c2ccccc2C)c(Oc2ccccc2)n1 | i | -0.08
O=C(COC(=O)CCc1nc2ccccc2c(=O)[nH]1)Nc1ccccc1Cl | i | 1.1
CCOC(=O)c1c(S(=O)(=O)NCC(=O)N2CCN(c3ccccc3OC)CC2)c(C)n(C)c1C | i | -0.37
COc1ccc(-n2c(SCC(=O)Nc3ccccc3OC)nc(O)c(Cc3ccccc3)c2=O)cc1 | i | -1.7
CC(=O)c1c(C)[nH]c(C(=O)OCC(=O)Nc2ccc(C)cc2[N+](=O)[O-])c1C | i | -0.39
O=C(Nc1cc2cc([N+](=O)[O-])ccc2oc1=O)c1cccs1 | i | -1.4
COC(=O)N/N=C/c1ccccc1Cl | i | -2.1
C[C@@H](C(=O)NCCc1ccccc1)N1C(=O)N2CCc3c([nH]c4ccccc34)[C@@]2(C)C1=O | -9.1* | -0.48*

Reformatted: results already given.
Below each compound: KCNQ2 block	KCNQ2 block baseline
> CCOC(=O)c1cc(-c2ccc(F)cc2)n(CC(=O)NCc2ccccn2)c1C
→ i	-1.3
> NC(=O)COc1c(-c2ccccc2)oc2ccccc2c1=O
→ i	2.1

Continuation:
Molecule | KCNQ2 block | KCNQ2 block baseline
O=C(NC1(N2CCOCC2)CC1)c1ccc(Cl)cc1 | i | -0.58
Cc1nc(N2CCN(c3ccccn3)CC2)c2c(C)c(C(=O)N3CCN(c4cccc(Cl)c4)CC3)sc2n1 | i | 2.5
O=C(CCn1c(=S)[nH]c2cc3c(cc2c1=O)OCO3)NCc1ccc(Cl)cc1 | i | 2.2
CCC(C)Sc1nnc(-c2c[nH]c3ccccc23)n1CCOC (stereo unspecified) | i | -2.3
O=C(CN1C2=NCCCN2c2ccccc21)c1ccc2c(c1)OCO2 | i | 0.23
CCOc1ccc(C(=O)N/N=C/c2cccc3cccnc23)cc1 | i | 0.5
O=C(Nc1ccc(F)cc1)c1ccc(-n2ccnc2)nc1 | i | 1.9
Cc1cc(C)n(CC(=O)N/N=C/c2cccc([N+](=O)[O-])c2)n1 | i | 2.3
Cc1cc(C(=O)NC2CC(C)(C)Cc3c2cnn3-c2ccccc2)n(C)n1 (stereo unspecified) | i | 0.3
CS(=O)(=O)N(CC(=O)NC1CCCCC1)Cc1ccc(F)cc1 | i | -0.22
O=C1OC(Cc2ccccn2)C(O)=C1C1=NCCCCN1 (stereo unspecified) | i | 1.1
Cc1ccc(Cn2nnc3c(=O)n(CC(=O)NCc4ccc5c(c4)OCO5)cnc32)cc1 | i | -0.17
CCN(CC)CCNC(=O)c1cc(-c2cccnc2)nc2ccc(S(=O)(=O)N3CCC(C)CC3)cc12 | i | -0.46
S=C(Nc1cccc(Cl)c1Cl)Nn1cnnc1 | i | 0.44
C/C(=N\NS(=O)(=O)c1ccc(Cl)c([N+](=O)[O-])c1)c1cc2ccccc2o1 | i | -4
CC(C)=Cc1oc2ccc([N+](=O)[O-])cc2c1N1CCOCC1 | i | 0.02
Cc1ccc(-c2nc(CN3CCCCC3c3cccc(F)c3)c(C)o2)o1 (stereo unspecified) | i | -0.41
CCOCCOC(=O)COC(=O)c1ccccc1NC(=O)c1ccccc1 | i | 0.23
CCN(CCCNC(=O)CNC(=O)c1nn(-c2ccc(OC)cc2)c(=O)c2ccccc12)c1cccc(C)c1 | i | -0.6
O=C(c1ccc(F)cc1)c1ccc(-c2ccc(F)cc2)nc1 | i | -1.4
COc1ccccc1Nc1nc2ccccc2n2cnnc12 | i | -0.8
O=C(COc1ccccc1Br)N1CCN(c2ccccc2)CC1 | i | 1.2
N#C/C(=C(/O)CN1CCN(c2ccccc2F)CC1)c1nc(-c2ccc(Cl)cc2)cs1 | i | -0.46
CC1CCC(C(C)C)C(OC(=O)CSc2nccc(=O)[nH]2)C1 (stereo unspecified) | i | -1.1
N#Cc1ccccc1NC(=O)c1ccc2c(c1)OCCO2 | i | 0.82
COc1ccc2c(c1)CCc1sc(NC(=O)c3ccco3)nc1-2 | i | -0.16
Cc1nc(/C=C/c2ccccc2)cc(/C=C/c2ccccc2)n1 | i | -0.63
CCOc1ccc(CCNC(=O)COC(=O)C2CC2)cc1OCC | i | 1.5
O=S(=O)(NCc1cn2ccsc2n1)c1cccs1 | i | 0.46
NC(=O)c1nsc(C(=O)N(CC(=O)NCc2ccco2)c2ccccc2F)c1N | i | 0.53
COc1ccc(-n2c(SCC(=O)OC(C)C)nnc2-c2ccccn2)cc1 | i | -0.36
COC(=O)c1ccc(N2C(=O)c3ccc(OC)c(OC)c3C2=O)cc1 | i | -0.03
N#Cc1ccccc1CSCCNC(=O)Cc1c(F)cccc1Cl | i | -0.24
Cc1c(CC(Cl)(Cl)Cl)c2c(n1O)CC(C)(C)CC2=O | i | 0.87
CCN1CCN(C(=O)c2ccc3c(c2)N(Cc2ccccc2)C(=O)c2ccccc2S3(=O)=O)CC1 | i | 0.33
O=C(NN1CCOCC1)c1cn(-c2ccccc2)nc1-c1cccs1 | i | 1.1
CCC(c1nnnn1C1CCCC1)N1CCN(c2cccc(OC)c2)CC1 (stereo unspecified) | i | 1.1
Cc1ccccc1CN(C)CC(=O)NC(C)CCc1ccccc1 (stereo unspecified) | -6.6* | 0.14*
C=CCOc1c(CNc2nccs2)cccc1OCC | i | 0.35
Cc1ccc2c(c1)c1c3n2CC(=C2C(=O)OC(C)(C)OC2=O)NC3CCC1 (stereo unspecified) | i | 1.7
O=C(COC(=O)Cc1cccs1)Nc1ccccc1F | i | 0.8
CN(C)c1ccc(/C=N/NC(=O)CNC(=O)c2ccco2)cc1 | i | -0.01
CC(C)CC1CCCCC1OC(=O)CN1CCCCC1 (stereo unspecified) | i | 0.84
CCC(CC)NC(=O)c1cccc(NC(=O)C(C)C)c1 | i | 0.71
COc1cc(CNC(C)C)c(Br)cc1OC1CCCC1 | i | -0.2
OC(Cc1ccncc1)(c1ccccc1)c1ccccc1 | i | 0.2
C=C(C)Cn1c(C)cc(C)c(S(=O)(=O)c2ccc(C)cc2)c1=O | i | -2.4
COc1ccccc1-c1nc2ccccc2nc1-c1ccccc1 | i | -2.1
CC(C)N1CCC(N2CCN(Cc3cc4c(cc3Cl)OCO4)CC2CCO)CC1 (stereo unspecified) | i | 1.6
COc1ccc(NC(=O)C2CCCN(c3cnccn3)C2)cc1 (stereo unspecified) | i | 0.13
CCOC(=O)c1c(-c2cccc([N+](=O)[O-])c2)csc1NC(=O)C1CCCCC1 | i | 2.9
O=S(=O)(c1cccc(C(F)(F)F)c1)N(CCCN1CCOCC1)Cc1cccs1 | i | 1.1
O=C(Oc1cccc(-c2cnc3ccccc3n2)c1)c1ccco1 | i | 1.3
CC(NC(=O)COC(=O)c1ccc2ccccc2n1)C1CC2CCC1C2 (stereo unspecified) | i | -0.18
O=C(NCCc1nnc2ccc(NCc3ccc(F)cc3)nn12)c1ccccc1 | i | -1.2
COc1cc(/C=N/NC(=S)Nc2cccc(S(=O)(=O)N(C)C)c2)cc(OC)c1O | i | 2.1

Continuation.
Molecule | KCNQ2 block | KCNQ2 block baseline
CN1CCc2c(sc(NC(=O)CS(=O)(=O)c3ccc(F)cc3)c2C(N)=O)C1 | i | 1.1
COc1ccc(C(=O)Nc2cc3c4c(c2)C(C)C(=O)N4CCC3)cc1 (stereo unspecified) | i | 0.51
COc1ccc(C2CC(c3cccs3)=NN2c2ccccc2)cc1 (stereo unspecified) | i | -0.23
COC(=O)c1sccc1NC(=O)C1CC=CCC1C(=O)O (stereo unspecified) | i | 3.3
CCCn1c(=N)n(CC(=O)OCC)c2ccccc21 | i | -0.75
Cc1nc(NC(=O)c2ccccc2)sc1-c1csc(Nc2ccc(Cl)cc2Cl)n1 | i | -0.01

Gathered by group: those above with a cyano group (4)
Molecule | KCNQ2 block | KCNQ2 block baseline
CC1=C(C#N)C(c2ccc(O)cc2)C2=C(CCCC2=O)N1 (stereo unspecified) | i | 0.1
N#C/C(=C(/O)CN1CCN(c2ccccc2F)CC1)c1nc(-c2ccc(Cl)cc2)cs1 | i | -0.46
N#Cc1ccccc1NC(=O)c1ccc2c(c1)OCCO2 | i | 0.82
N#Cc1ccccc1CSCCNC(=O)Cc1c(F)cccc1Cl | i | -0.24

Screening data deposited in PubChem BioAssay by Johns Hopkins Ion Channel Center.

These rows are one share of the data; count on the stated rates, not on these rows.
